Compound activity (PubChem BioAssay)
HCMV UL50-53 inh: inhibitors of HCMV UL50-UL53 nuclear egress complex interaction | HTRF UL50-UL53 interaction, normalized percent inhibition | inhibition, % (no concentration beside the values) | 190,000 tested, 0.15% active;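 active = both replicates at 50% or more, plus weaker picks with an unusually low signal ratio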;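 note: stock transfer was 100 nL into about 20 µL; 0% = negative control wells and 100% = wells with untagged competitor protein; inactives centre near -12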
GIV Gai3 FP: GIV-Galpha-i interaction inhibition; 210,000 tested, 0.42% active; P08753; Galpha-i3/FITC-GIV peptide fluorescence polarization, 90 min; stronger effect = lower value; scaled: aluminum fluoride 0%, vehicle 100%; percent of control (FP), % (concentration not given with the values);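 active = replicate mean at 85% of control or lower, very high polarization wells dropped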;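 note: wells of about 15 µL received 100 nL stock; the first replicate is given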
Target sequence (P08753 whole entry, looked up): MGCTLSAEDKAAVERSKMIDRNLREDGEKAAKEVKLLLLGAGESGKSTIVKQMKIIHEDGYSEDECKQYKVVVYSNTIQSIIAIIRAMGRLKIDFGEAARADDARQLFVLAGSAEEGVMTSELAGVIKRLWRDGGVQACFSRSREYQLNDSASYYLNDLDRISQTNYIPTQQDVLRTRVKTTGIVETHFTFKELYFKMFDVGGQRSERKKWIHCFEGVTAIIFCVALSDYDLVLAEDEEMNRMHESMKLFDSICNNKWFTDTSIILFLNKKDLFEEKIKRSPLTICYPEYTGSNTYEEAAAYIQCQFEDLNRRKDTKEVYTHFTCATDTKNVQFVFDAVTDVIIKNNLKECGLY
Sa growth 42C: S. aureus growth inhibition; relative growth, % (test concentration not listed); S. aureus RN4220 growth, OD600, 20 h, 42 °C; stronger effect = lower value; 170,000 tested, 0.53% active; AID 720641;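 active = growth at 42 °C up to 50% and 20 or more points under that at 30 °C, or under 10% at both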;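 note: 300 nL library stock went into each well; scaled to the means of positive and negative controls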
Sa growth 42C second temp: second read-out of Sa growth 42C, no call of its own (marks repeat the call); relative growth, %; measured here: growth at 30 °C;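 optical density after 20 h as mean of two plates; 100% = untreated growth and lower means inhibition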
* marks the source's active call; other numbers are inactive results; . = no result given; & = joins results of further samples.

Below each compound – HCMV UL50-53 inh, GIV Gai3 FP, Sa growth 42C, Sa growth 42C second temp
NC(=O)C1CCN(C(=O)CSc2ccc3ccccc3c2)CC1
 : -8, ., 84, 95
COc1cccc(NC(=O)c2oc3ccccc3c2NC(=O)C2CCCC2)c1
 : -8, 105, 103, 88
CCc1ccccc1NC(=O)Cn1c(=O)oc2ccccc21
 : ., 103, 102, 89
Cc1ccc2sc(-c3ccc(NC(=O)C(C)C)cc3)nc2c1
 : -6, ., 88, 86
COc1ccc(N2C(=O)/C(=C/c3ccc(OC)c(OC)c3OC)C(=O)NC2=S)cc1
 : -22, 105, ., .
O=C(CCn1c(=S)[nH]c2ccsc2c1=O)N1CCN(c2ccccc2)CC1
 : ., 103, 99, 82
COc1ccc(-c2[nH]c(=S)nc(N)c2-c2nc3ccccc3n2C)cc1
 : -48, ., 102, 80
CCOC(=O)c1cc(NC(=O)c2cc3ccccc3oc2=O)sc1CC
 : ., 102, 92, 85
Cc1c(NC(=O)Nc2cccc(C(F)(F)F)c2)sc2nc3n(c(=O)c12)CCC(C)CC3 (stereo unspecified)
 : -15, 102, 98, 93
Cc1ccc(-c2nn(-c3ccccc3)cc2C2CC(c3cccs3)=NN2C(=O)CCC(=O)O)cc1 (stereo unspecified)
 : -56, 104, ., .
Cc1nnc(C)n1/N=C/c1ccccc1C(F)(F)F
 : 21, ., 88, 98
CCCCSc1nc2c(cnn2-c2ccccc2)c(=O)[nH]1
 : -14, 99, 107, 77
CCOC(=O)c1c(C)oc2nc(C)nc(NCc3ccc(C)cc3)c12
 : ., 111, 99, 87
N#Cc1ccc(N2CCN(c3ccc(C(F)(F)F)cn3)CC2)nc1
 : 4, 104, 113, 99
COc1cccc(-n2c(=O)c3ccccc3c3ccccc3c2=O)c1
 : -8, 105, ., .
CC1CCN(C(=O)COc2ccccc2-c2nc(-c3ccccc3)no2)CC1
 : 16, 104, ., .
CCC(=O)Nc1ccc(S(=O)(=O)N2CCCC2)cc1
 : 3, 103, 94, 103
COc1ccc(C2NCCS2)cc1 (stereo unspecified)
 : -32, 101, 89, 105
COc1ccc(OC)c(Nc2nc(Nc3cc(OC)ccc3OC)nc(N3CCC(C)CC3)n2)c1
 : -25, 102, 92, 88
Cc1ccc2oc(-c3ccc(NC(=O)C(F)(F)F)cc3)nc2c1
 : -8, 101, 102, 88
CC(C)n1nnc(-c2ccc(OCc3ccccc3F)cc2)n1
 : -4, 107, 120, 93
O=C1c2ccccc2C(=O)N1c1cccc(Br)c1
 : -6, 94, 99, 91
COc1ccc(C)cc1NC(=O)CSc1ccc(-c2ccccn2)nn1
 : ., 103, 70, 58
CN1CCCN(C(=O)NC(C)(C)C)c2nc3ccccc3nc21
 : 0, ., 100, 99
FC(F)(F)CNCc1ccccc1
 : -3, ., 101, 94
O=C(NCC(=O)N1CCCC1)c1cccs1
 : -15, 102, 87, 91
Cc1ccc(/C=C/C(=O)Nc2ccc(S(N)(=O)=O)cc2)o1
 : -71, 113, 95, 88
CC1CCN(S(=O)(=O)c2ccc3c(c2)CCC(=O)N3CC(=O)NCc2ccccn2)CC1
 : -32, 108, ., .
Cc1cccc(N2CCN(C(=O)c3cnc4sc(C)c(C)n4c3=O)CC2)c1C
 : -4, 111, ., .
Cc1ccc(NC(=O)C(=O)NCC(c2ccc3c(c2)OCO3)N2CCOCC2)cc1C (stereo unspecified)
 : ., 96, 87, 87
Cc1ccc(CNC(=O)COC(=O)CN2C(=O)C3CC=CCC3C2=O)cc1 (stereo unspecified)
 : -38, ., 114, 88
CCN1CCN(c2ccc(N=Cc3cccc(C)c3O)cc2)CC1
 : -30, 104, 87, 93
CCC1CCCCN1C(=O)COc1ccc(F)cc1 (stereo unspecified)
 : -11, 104, 106, 74
Cc1ccn2cc(-c3ccc(NC(=O)c4cc(Br)ccc4Cl)cc3)nc2n1
 : -6, 101, ., .
CCCCNC(=O)c1nn(-c2ccc(CC)cc2)nc1CO
 : -13, 101, 107, 94
COc1ccc(NC(=S)NCC(c2ccccc2)c2c[nH]c3ccccc23)cc1 (stereo unspecified)
 : ., 101, 102, 60
COc1ccc(-c2cnc(NCc3ccc(C)cc3)n2C)cc1
 : 9, 109, 77, 89
Cn1cnnc1-c1cccc(NC(=O)Nc2cccc3ccccc23)c1
 : -68, 101, 90, 100
CCc1ccccc1NC(=O)Cn1cnc2ccccc2c1=O
 : -4, ., 94, 87
CSc1cccc(-c2nnc(NC(=O)c3ccc4c(c3)OCCO4)o2)c1
 : ., 102, 7.7*, 0.2*
CC1=CC(=O)N(CCO)C1c1ccc(Cl)cc1 (stereo unspecified)
 : -4, ., 90, 90
COc1cccc(NC(=O)Cn2c(=O)n(CC(=O)NCc3ccc(C)cc3)c(=O)c3sccc32)c1
 : -19, 109, 104, 81
CCn1cc(CCC(=O)NCc2ccc(F)cc2)c2ccccc21
 : ., 111, 107, 92
CC(=O)N1CCc2cc(S(=O)(=O)NC(CC(C)C)C(=O)NCc3ccccc3Cl)ccc21 (stereo unspecified)
 : -29, 106, 112, 95
CCCCC(=O)NCc1nc(-c2ccc(C(F)(F)F)cc2)no1
 : -9, 101, 108, 91
CCN(CC)c1cc(Nc2cccc(OC)c2)c([N+](=O)[O-])c2nonc12
 : -4, 108, ., .
Cc1nc(N2CCOCC2)c2c(C(=O)N3CCN(c4cc(Cl)ccc4C)CC3)c(C)oc2n1
 : ., 107, 99, 87
CC(C)N(Cc1ccccc1)C(=S)NC(=O)C1CC1
 : -12, ., 79, 82
NC(=O)C1CCN(C(=O)c2cnn(-c3ccccc3)c2-n2cccc2)CC1
 : ., 108, 126, 85
CC(C)n1cnc2nc(COc3ccccc3NC(=O)Nc3cc(F)ccc3F)cc(=O)n21
 : 2, 99, ., .
COc1ccc2nc(NC(=O)c3ccco3)sc2c1
 : -8&-2, ., 100, 88
O=C1c2ccccc2-c2nnc(-c3ccc(O)cc3)cc21
 : -77, 104, ., .
CCC1CN(C(=O)Nc2cccc(C)c2)c2ccccc2S1 (stereo unspecified)
 : -13, 109, 88, 77
Cc1ccc(NC(=O)c2sc(-n3nc(C)c(Cc4ccc(Cl)cc4)c3C)nc2C)cc1
 : -17, 105, 116, 92
Cc1c(Cl)cccc1NC(=O)CSc1nc(=O)n(Cc2cccnc2)c2c1CCC2
 : ., 109, 88, 91
O=C(O)CCNS(=O)(=O)c1ccccc1
 : -8, ., 89, 98
O=c1[nH]c(CN2CCN(S(=O)(=O)/C=C/c3ccccc3)CC2)nc2ccccc12
 : -23, ., 100, 93
CC(=O)c1cccc(NC(=O)Cc2ccc(NC(=O)N3CCCCc4ccccc43)cc2)c1
 : ., 104, 145, 77
COc1ccc(CNC(=O)CSc2cc(N3CCCCC3)ncn2)cc1
 : -34, 105, ., .
CCc1c(C)sc(NC(=O)c2cc(-c3ccccc3)on2)c1C#N
 : 6, ., 73, 106

Additional structures:
Below each compound – HCMV UL50-53 inh, GIV Gai3 FP, Sa growth 42C, Sa growth 42C second temp
O=C(Cc1ccccc1)Nc1cccc(-c2nc3ccccc3o2)c1
 : -2, 286, 104, 107
CCC(=O)Nc1ccc(C2=NN(C)C(=NCc3ccccc3)SC2)cc1
 : 16, ., 98, 91
CCCCCn1c(=N)c(S(=O)(=O)c2ccccc2)cc2c(=O)n3cccc(C)c3nc21
 : -36, 108, 110, 89
N#CC(C#N)=Cc1cn(-c2ccccc2)nc1C(=O)c1ccccc1
 : 1, ., 102, 86
Nc1nnc(SCc2c(-c3ccccc3)nnn2-c2ccc(F)cc2F)s1
 : 4, 100, 98, 96
CCCn1cc(SCC(=O)N2CCc3ccccc32)c2ccccc21
 : ., 100, 96, 88
COc1ccc2ncc3c(-c4ccc(C)cc4)n[nH]c3c2c1
 : -15, 98, ., .
O=C(Cn1c(CC(=O)N2CCOCC2)nc2ccccc21)Nc1ccc2c(c1)OC(F)(F)O2
 : 4, ., 96, 94
Cn1nc(C(C)(C)C)cc1C(=O)NCc1ccc2c(c1)CCO2
 : 6, 98, 89, 107
CCOC(=O)c1cc(S(=O)(=O)N2CCN(c3ncccn3)CC2)[nH]n1
 : -4, 101, ., .
CCCP(=O)(CC(=O)O)c1ccccc1 (stereo unspecified)
 : -8, 98, 114, 80
Cc1cc(N2CCCCC2)nc(-c2ccc(Br)cc2)n1
 : 3, ., 54, 57
Cc1ccc(-n2nc(CO)c(C(=O)NCc3ccncc3)n2)cc1
 : -24, 109, ., .
CC[N+]12CCC(CC1)C(C(=O)c1cccs1)C2 (stereo unspecified)
 : ., 105, 81, 82
S=C(NC1CCCCC1)N1CCCCC1
 : -45, 100, 101, 84
O=C1NS(=O)(=O)c2cc3c(cc21)C(=O)NS3(=O)=O
 : -2, 105, ., .
O=C(Nc1ccccc1Br)c1nc(Nc2ccccc2)c2ccccc2n1
 : -25, 103, ., .
CCCCSc1nnc2c(n1)OC(C)N(C(C)=O)c1ccccc1-2 (stereo unspecified)
 : -61, 109, 101, 100
O=C(c1cc2n(n1)CCCN(Cc1cccc(F)c1)C2=O)N1CCC(N2CCCCC2)CC1
 : -8, 99, ., .
CN1C(=O)c2cc3ccccc3n2CC1(C)C(=O)NCC(=O)NCc1ccc2c(c1)OCO2 (stereo unspecified)
 : -1, 100, ., .
COc1ccc(C=Nc2ccccc2Sc2c(C)n[nH]c2C)cc1
 : -38, ., 98, 80
CCOC(=O)c1ccc(COC(=O)c2ccc(-c3nnc(-c4ccccc4)o3)cc2)o1
 : 2, 102, 114, 94
Cc1c(C(=O)O)sc2ccccc12
 : -12, ., 91, 102
C#CCn1c(C2CC(=O)N(C)C2)nc2ccccc21 (stereo unspecified)
 : -14, 100&99, 71, 87
Cc1ccc(NC(=O)CN2C(=O)c3ccccc3Sc3ccc(C(=O)N4CCOCC4)cc32)cc1C
 : ., 102, 99, 84
CCCS(=O)(=O)NCCc1csc(-c2cccc(C)c2)n1
 : -29, 101, 97, 92
CCN(CC)CCCNC(=O)c1nn2c(C(F)(F)F)cc(-c3ccc(OC)c(OC)c3)nc2c1Cl
 : -85, 101, ., .
COC(=O)/C(=C\c1cccnc1)N(C)C(=O)c1ccc(F)cc1
 : -12, ., 96, 88
O=C(Cn1c(=O)n(-c2ccccc2)c(=O)c2c3c(sc21)CCC3)c1ccc(F)cc1
 : -3, 104, 98, 88
O=C(Nc1ccc(S(=O)(=O)C(F)F)cc1)C1CC(=O)N(Cc2ccccc2)C1 (stereo unspecified)
 : -5, ., 102, 99

Further structures follow.
| smiles | HCMV UL50-53 inh | GIV Gai3 FP | Sa growth 42C | Sa growth 42C second temp |
| --- | --- | --- | --- | --- |
| CCOc1ccc(NC(=O)N(Cc2cn(C)c3ccccc23)C2CCCCC2)cc1 | . | 104 | 115 | 88 |
| COc1nc(Nc2ccc(C)cc2)nc(NC2CCCC2)n1 | -20 | 102 | 131 | 78 |
| O=c1cc(COc2ccccc2Cl)nc2scc(-c3ccccc3)n12 | -33 | 107 | 98 | 84 |
| COc1ccccc1OC(C)C(=O)Nc1ccc(-c2nc3ccccc3s2)cc1 (stereo unspecified) | -3 | 106 | 107 | 91 |
| CSCCC(N)c1nc2ccccc2n1Cc1ccccc1 (stereo unspecified) | 0 | . | 88 | 102 |
| CCOC(=O)C(N)Cc1c[nH]c2ccccc12 (stereo unspecified) | -24 | 103 | 88 | 78 |
| CCc1ccc(N2C(=O)CC(C(=O)OC)=C2C)cc1 | -6 | 99 | 95 | 101 |
| CCOc1ccc(-c2nn(CC(=O)NC3CCCC3)c3c2cnc2ccc(C)cc23)cc1 | . | 98 | 70 | 90 |
| O=c1c2oc3ccccc3c2n(Cc2cccc(Cl)c2)c(=O)n1Cc1ccco1 | . | 98 | 84 | 91 |
| O=C(NCCn1ccc2ccccc21)c1ccc(F)cc1 | . | 60* | 85 | 81 |

Taken from above.
CCOC(=O)C(N)Cc1c[nH]c2ccccc12 (stereo unspecified) in Sa growth 42C second temp reads 78
CCOc1ccc(NC(=O)N(Cc2cn(C)c3ccccc23)C2CCCCC2)cc1 in GIV Gai3 FP reads 104
COc1nc(Nc2ccc(C)cc2)nc(NC2CCCC2)n1 in Sa growth 42C reads 131
O=c1cc(COc2ccccc2Cl)nc2scc(-c3ccccc3)n12 in Sa growth 42C second temp reads 84
CCc1ccc(N2C(=O)CC(C(=O)OC)=C2C)cc1 in GIV Gai3 FP reads 99

Record cards (already shown):
CCOc1ccc(-c2nn(CC(=O)NC3CCCC3)c3c2cnc2ccc(C)cc23)cc1 reads HCMV UL50-53 inh: .; GIV Gai3 FP: 98; Sa growth 42C: 70; Sa growth 42C second temp: 90
CCc1ccc(N2C(=O)CC(C(=O)OC)=C2C)cc1 reads HCMV UL50-53 inh: -6; GIV Gai3 FP: 99; Sa growth 42C: 95; Sa growth 42C second temp: 101

This is a random part of the collection, and some 0.79% of all compounds hit somewhere here.
